From PubChem
ClpP mod – qHTS Assay for Activators of ClpP | ATP-dependent Clp protease proteolytic subunit (Bacillus subtilis (strain 168)), P80244 | purified B. subtilis ClpP, FRET peptide cleavage, 20 min | Potency, µM (titrated, usually from 57.5 µM), inactives show at the top dose activity change, negative = active | actives 1.9% (n = 340,000) | AID 651965, 2013; active = well fitted falling curve with a large enough effect; inconclusive = small, poorly fitted or top-dose-only effect; inactive = no such curve, though single readings can be large or run the other way; also: the source files actives as falling curves though it sought activators and does not explain the sign; nearly all actives have a fitted effect of over 65% in size; many hits overshoot -100%
Target sequence (P80244 whole entry, looked up): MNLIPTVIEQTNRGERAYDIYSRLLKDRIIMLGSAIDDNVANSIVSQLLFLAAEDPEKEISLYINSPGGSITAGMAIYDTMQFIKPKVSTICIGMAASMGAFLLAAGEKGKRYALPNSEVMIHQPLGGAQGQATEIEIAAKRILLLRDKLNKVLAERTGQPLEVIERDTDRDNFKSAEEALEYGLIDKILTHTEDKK
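Purified B. subtilis ClpP, 10 microg/mL final in Tris/HCl pH8 with KCl, BSA, glycerol and Tween-20, cleaved an Abz/nitrotyrosine-quenched decapeptide. Fluorescence (ex 320, em 430) was read at 0 and 20 min at room temperature. Delta was normalized to 5.8 microM ADEP and DMSO/no-enzyme controls.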
Numbers without * were called inactive; ? = inconclusive; & = joins results of further samples. Potency is read from the fitted curve at half-maximal effect. This is a subset; the hit share may differ from the screen's.

Compound	ClpP mod
CCCc1nn2c(=O)cc(COC(=O)c3ccco3)nc2s1	-1.7%
CCOc1ccc(C2C(=O)N(C3CCCCCC3)CC(=O)N2CCc2ccccc2)cc1OC (stereo unspecified)	-0.7%
CCOc1ccc(CNC(=O)CCn2cccn2)cc1OC	-3.3%
Cc1ccc(NC(=O)Cn2c(=O)c3ccccc3n3nncc23)cc1	2.7%
CCOC(=O)c1ccccc1NC(=O)Cn1c(=O)n(CCCC(=O)NCc2ccc3c(c2)OCO3)c(=O)c2ccccc21	-3.2%
Cc1nn(-c2ccc(N3CCCCC3)nn2)c(C)c1CCC(=O)NCc1ccc(OC(C)C)cc1	-1.1%
CCCCCOC(=O)CSc1ncnc2sc3c(c12)CCC(C)C3 (stereo unspecified)	-0.4%
CC(=O)c1ccc(NC(=O)CSc2nc(C3CCCC3)nc3c2c(=O)n(C)c(=O)n3C)cc1	1.8%
O=C(CN1CCCN(Cc2cccc(F)c2)S1(=O)=O)Nc1ccc2c(c1)OCCO2	0.8%
CCc1nc2onc(C)c2c(=O)n1CC(=O)O	1.1%
CCCCCn1c(=O)[nH]c2cc(C(=O)N3CCN(c4cc(Cl)ccc4C)CC3)ccc2c1=O	-3.6%
CC(=O)N1CCc2cc(Br)cc(S(=O)(=O)CCC(=O)N3CCN(c4cccc(C)c4C)CC3)c21	0.3%

Fetched one by one from above, 2 records:
Compound	ClpP mod
Cc1nn(-c2ccc(N3CCCCC3)nn2)c(C)c1CCC(=O)NCc1ccc(OC(C)C)cc1	-1.1%
CCOc1ccc(CNC(=O)CCn2cccn2)cc1OC	-3.3%

Going on with the list.
Compound	ClpP mod
CCCCNC(=O)CSc1nc2cc3c(cc2c(=O)n1CCCC(=O)NCc1ccc(OC)cc1)OCO3	-2.9%
Cc1ccc(-n2ccnc(NCc3cccs3)c2=O)cc1C	-9.3%
Cc1ccccc1NC(=O)CSc1nc(=O)n(CCN2CCOCC2)c2c1CCC2	-3.6%
Cc1ccc(Nc2c(-c3ccc(C)cc3)nc3cnccn23)cc1	-12.1%
O=C(CSCc1cnn(-c2ccccc2)c1-n1cccc1)NCc1ccccc1Br	-0.3%
CCN(CC)CCNC(=O)CCn1c(=O)c2cccn2c2cccnc21	4.0%
COc1ccc(/C=C/c2ccnc3ccccc23)cc1OC	-11.4%
O=C(Nc1ccc(Br)cc1)c1cccc(S(=O)(=O)N2CCc3ccccc32)c1	-10.5%
COCCCNc1nc(NCc2ccccc2OC)c2cnn(C)c2n1	-22.3%
O=C(CNC(=O)c1ccccc1F)OCc1cc(=O)n2nc(C3CC3)sc2n1	-6.8%
COc1ccc(Cl)cc1NC(=O)c1sc(-n2nc(C)c(Cc3ccccc3)c2C)nc1C	0.1%
COC(=O)c1ccc(NC(=O)CCn2cnnn2)cc1	0.4%
CCC1CN(C(=O)N2CCC(C(=O)NCCOC)CC2)c2ccccc2O1 (stereo unspecified)	0.6%
CCOC(=O)c1[nH]c(C)c(CCC(=O)N2CCN(c3ccc(OC)cc3)CC2)c1C	1.3%
Cc1nn(C)c2c1c(-c1ccccc1)cc(=O)n2CC(=O)Nc1ccccc1C(F)(F)F	?
CCOc1ccc(CCNC(=O)CCc2c(C)nc3c4c(C)cc(C)nc4nn3c2C)cc1	-19.8%
Cc1ccc(Cc2nc3ccccc3nc2SCC(=O)N2CCC(C)CC2)cc1	-8.0%
CC(C)C(=O)OCc1cc(=O)n2nc(C3CC3)sc2n1	-6.2%
Cc1ccc(N(Cc2cccs2)C(=O)c2ccccc2Cl)cc1	-1.0%
CSc1ncc(C(=O)Nc2ccc(F)cc2F)c(-c2ccccc2)n1	1.6%
Cc1ccc2[nH]c(=O)c(CN(CCO)Cc3nnnn3Cc3ccco3)cc2c1	-11.5%
COc1ccccc1CNS(=O)(=O)c1cc(-c2cc(C)no2)ccc1C	-6.9%
Cc1cccc(NCc2nnc3n2CCCCC3)c1C	-2.1%
COc1cccc(N2C(=O)N(Cc3ccc(C#N)cc3)c3ccccc3S2(=O)=O)c1	-1.4%
CC(C)CNc1ncnc2nc[nH]c12	-1.1%
CCOC(=O)c1c(S(=O)(=O)NCC(=O)N2CCN(c3cc(C)ccc3C)CC2)c(C)n(C)c1C	-0.1%
COc1ccc(Nc2c(-c3ccc(N4CCOCC4)cc3)nc3ncccn23)cc1OC	-0.8%
Cc1ccc(Cn2c(CCCNC(=O)C3CCCCC3)nc3ccccc32)cc1	0.4%
O=C(c1ccco1)n1nc(-c2ccccc2)nc1NCc1ccccc1Cl	-13.4%
COCCNC(=O)CCCn1c(SCC(=O)NCc2ccc(C)cc2)nc2c(sc3ccccc32)c1=O	-6.9%
CCC(=O)N1CCc2cc(CNS(=O)(=O)c3ccc(NC(=O)CC(C)C)cc3)ccc21	1.1%
CC(C)CCNC(=O)c1cn(C)c2ccc(S(=O)(=O)N3CCOCC3)cc2c1=O	-4.7%
O=S(=O)(c1ccccc1)c1nnn2c1nc(Nc1ccccc1)c1cc(Cl)ccc12	?
CCOC(=O)c1c(Nc2ccc(C)cc2)nnc(-c2ccccc2)c1-c1ccccc1	-3.2%
COc1cccc(/C=C(\C#N)C(=O)Nc2ccc(NC(C)=O)cc2)c1OC	-6.7%
O=C(NCCc1ccccc1)c1cnc2sc(N3CCCCCC3)nn2c1=O	?
Cc1cc(C)cc(NC(=O)C2CCCN(c3nnc(-n4c(C)ccc4C)s3)C2)c1 (stereo unspecified)	-0.2%
COC(=O)c1ccc(-n2nnc(-c3nc(-c4ccc5c(c4)OCO5)no3)c2C)cc1	-1.1%
COc1ccc(Br)c2c1-c1nc(NC(=O)c3ccccc3SC)sc1C2	-2.3%
Cn1c(=O)[nH]c(=O)c2c1nc(CN1CCN(c3ccccc3)CC1)n2Cc1c(F)cccc1Cl	-5.0%
CCc1cccc(C)c1NS(=O)(=O)c1cc(-c2cc(C)no2)ccc1C	2.5%
CCOC(=O)c1cccc(NC(=O)c2cc3sccc3n2Cc2ccc(Cl)cc2)c1	?
CCOc1ccc(NC(=O)c2c(Nc3ccc(OC)cc3OC)sc(C(=O)c3ccc(Cl)cc3)c2N)cc1	2.4%
CN(C)c1ccc(-c2nc3ccc(Cl)cn3c2Nc2ccc3c(c2)OCCO3)cc1	3.6%
COc1ccc(-n2ccnc2SCC(=O)Nc2ccc3c(c2)OCO3)cc1	0.4%
COc1ccc(OCC(=O)N(Cc2cccc(OC)c2)C2CCS(=O)(=O)C2)cc1 (stereo unspecified)	-0.6%
CC(C)c1ccc(NC(=O)Cc2ccc(NC(=O)N3CCCCc4ccccc43)cc2)cc1	-2.1%
O=C(CSc1oc(-c2ccccc2)nc1S(=O)(=O)c1ccc(Br)cc1)c1ccccc1	0.9%
C1=Cc2ccccc2/C1=C\c1cc2c3c(c1)CCCN3CCC2	-4.7%
CCc1ccccc1NC(=O)CSc1nc(-c2cccc(Cl)c2)nc2c1Cc1c(CO)cnc(C)c1O2	-3.0%
CC(=O)c1ccc(NS(=O)(=O)c2ccc(-c3cc(C)no3)s2)cc1	-0.2%
COc1ccc(OC)c(S(=O)(=O)NCCS(=O)(=O)N2CCN(c3ccccc3F)CC2)c1	-3.6%
CC(=O)c1ccc(NC(=O)c2ncn(-c3ccccc3)n2)cc1	0.7%
COc1ccc(Oc2ncnc3c2oc2ccccc23)cc1	-1.9%
CCOC(=O)c1c(C)oc2ncnc(Nc3cc(C)cc(C)c3)c12	5.2%
CC(C)Cn1c(C2CC(=O)N(c3ccccc3Cl)C2)nc2ccccc21 (stereo unspecified)	?
Fc1ccc2c(c1)-c1c(cnc3cc(-c4ccc(Cl)cc4)nn13)CO2	-5.0%
COc1ccc(Cl)cc1NC(=O)c1cc2ccccn2n1	166.9%
CC(C)(C)c1ccccc1NC(=O)c1cnn2c(C(F)F)cc(-c3ccccc3)nc12	1.3%
Cc1cc(OCC(=O)Nc2ccc(-c3nc4cc(Cl)ccc4o3)cc2)cc(C)c1Cl	-25.1%

The results go on.
Compound	ClpP mod
CCN(C(=O)c1c(C)oc2ncnc(N3CCCCC3)c12)c1cc(C)ccc1C	0.5%
COc1ccc(Cn2c(=O)n(-c3ccccc3C)c(=O)c3c4c(sc32)CN(C(C)=O)CC4)cc1	0.3%
O=C(CN1CCN(Cc2ccccc2F)C1=O)NCc1ccccc1	-3.8%
O=C(Cn1c(=O)oc2cc(S(=O)(=O)NCc3ccccc3)ccc21)N(CCO)Cc1ccccc1	0.3%
O=C(Cn1c(SCC(=O)Nc2ccc(F)cc2)nc2ccccc21)NCc1ccc(Cl)cc1	2.3%
CCCSc1ncc(Cl)c(C(=O)Nc2ccc(S(=O)(=O)N3CCCC(C)C3)cc2)n1 (stereo unspecified)	-8.9%
CCN(CC)C(=O)c1sc2c(c1C)c(=O)n(-c1ccc(OC)cc1OC)c(=O)n2Cc1cc(C)ccc1C	-2.1%
O=C(Nc1ccc(Cl)cc1)c1cnn2c1NC(=C1CC1)C=C2C(F)F	-2.5%
CN(C)c1ccc(C(CNS(=O)(=O)c2cc(F)ccc2F)N2CCOCC2)cc1 (stereo unspecified)	0.6%
CCn1c(SCC(=O)Nc2cccc(Cl)c2)nnc1-c1nonc1NC(C)=O	-19.7%
CCN(Cc1ccccc1)C(=O)c1nc(-c2cccc(F)c2)n2c1CCCCC2	-0.9%
COc1ccccc1NC(=O)C1CCN(S(=O)(=O)c2ccc3c(c2)oc(=O)n3C)CC1	-20.6%

A stretch taken from the entries so far, for reference:
Compound	ClpP mod
CCCc1nn2c(=O)cc(COC(=O)c3ccco3)nc2s1	-1.7%
CCOc1ccc(C2C(=O)N(C3CCCCCC3)CC(=O)N2CCc2ccccc2)cc1OC (stereo unspecified)	-0.7%
CCOc1ccc(CNC(=O)CCn2cccn2)cc1OC	-3.3%
Cc1ccc(NC(=O)Cn2c(=O)c3ccccc3n3nncc23)cc1	2.7%

Next results follow.
Compound	ClpP mod
CC1=C(C(=O)OC2CCCC2)C(c2ccc(Cl)cc2)CC(=O)N1 (stereo unspecified)	-1.1%
COc1ccc(-c2onc(C)c2C)cc1S(=O)(=O)NCC1CCN(Cc2ccccc2F)CC1	-6.5%
O=C(NCc1ccco1)c1ccc(Cn2c(SCc3ccc(F)cc3)nc3cccnc32)cc1	4.1%
O=C(Nc1ccc(S(=O)(=O)Nc2ccccc2)cc1)N1CCCC1	0.9%
Cc1ccc(Nc2nc(Nc3ccc(C)c(C)c3)nc(N3CCOCC3)n2)cc1C	?
C[n+]1ccc(CO)cc1	1.0%
COc1ccc(C2C=C(c3ccccc3)Nc3nc(NS(=O)(=O)c4ccc(Cl)cc4)nn32)cc1 (stereo unspecified)	4.1%
COc1ccc(CCN2C(=O)N(c3ccc(C)cc3)C(=O)C2CC(=O)Nc2ccc(OC)cc2)cc1 (stereo unspecified)	-0.5%
Cc1ccc(NC(=O)C(=O)NCC2(c3ccccc3)CCCC2)cc1C	0.8%
O=C(Cc1ccc(OCCc2ccccc2)cc1)NO	1.2%
O=C(Nc1cc(-c2cccc(Cl)c2)nn1-c1ccccc1)c1ccccc1F	-25.6%
COc1ccc(Cn2c(=O)[nH]c3cc(C(=O)N4CCN(c5cccc(Cl)c5)CC4)ccc3c2=O)cc1	-9.2%
CCn1c(CNC(=O)c2ccc(OC)cc2)nnc1SCC(=O)Nc1cccc(C)c1	0.9%
CCOC(=O)c1c(NC(=O)CSc2cn(CCNC(=O)c3ccccc3F)c3ccccc23)sc2c1CCCC2	-19.4%
CCOC(=O)Cn1c(=O)n(-c2ccccc2OC)c2nc(-c3ccc(C(C)C)cc3)nc(C(N)=O)c21	4.2%
COc1ccc(NC(=O)Cn2c(=O)oc3cc(S(=O)(=O)NC(C)C)ccc32)cc1OC	-0.7%
CCOc1ccc2nc(N3CCCC(C(=O)Nc4cc(Cl)c(OC)cc4OC)C3)sc2c1 (stereo unspecified)	-2.1%
CCC(=O)N1CCN(c2nc3c(C)cccc3s2)CC1	1.6%
COc1cc(NC(=O)c2cc3c(=O)oc4ccc(C)cc4c3s2)cc(OC)c1OC	-1.4%
Cc1ccc(Nc2c(-c3ccsc3)nc3cccc(C)n23)cc1	4.3%&3.9%
COC(=O)c1ccc(NC(=O)CN2C(=O)CC(c3ccccc3)Sc3ccccc32)cc1 (stereo unspecified)	13.7%
COc1ccc(C(=O)COC(=O)CCCC(=O)Nc2cc(C(F)(F)F)ccc2Cl)cc1	1.1%
Cc1ccc(Cn2c(=O)c3c(nc4n3CCN4c3cc(C)cc(C)c3)n(C)c2=O)cc1	-3.1%
CCOc1ccc(-c2c(C)nn3c(C)c(C(=O)Nc4cccc(Cl)c4C)cnc23)cc1OCC	-2.0%
CC(C)(C)C(=O)Nc1nnc2n1CCS2	-0.5%
COc1ccc(-c2csc3nc(-c4ccc(Cl)cc4)oc(=O)c23)cc1	-0.1%
CCCC(=O)Nc1nnc(SCc2cc(=O)n3ccccc3n2)s1	-10.5%
CC1=C(c2ccc(C(C)C)cc2)S(=O)(=O)N=C1N1CCC(C(=O)Nc2ccc(C)cc2)CC1	1.8%
COC(=O)CN1C(C(=O)c2ccccc2)=C(OC(=O)c2ccc(C)cc2)c2ccccc2S1(=O)=O	0.0%
CC(C)C(NS(=O)(=O)c1ccc2c(c1)oc(=O)n2C)C(=O)NCCc1ccccc1 (stereo unspecified)	-3.4%
